# Bioassay records as filed in PubChem.
# AID923 – qHTS Assay for Allosteric/Competitive Inhibitors of Caspase-1: Spectroscopic Profiling in AFC Spectral Region. compound fluorescence, AFC spectral region (405/520 nm); almost no hit is shown here. AID 923, 2007. Potency, µM (titrated, usually from 57.5 µM), for inactives: at the top dose fluorescence increase, actives largely listed as activators. hit rate 1.1% among 75,000; active = well fitted activation curve with a large enough effect; inconclusive = small, poorly fitted or top-dose-only effect;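 note: potency is the fitted concentration of half-maximal effect; 0% is about no effect; scaled to a free AFC standard on each plate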
#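 Baseline compound fluorescence (AFC region, 405 nm ex/520 nm em) taken from the intercept of kinetic reads with 50 nM caspase-1 and 5 uM Ac-WEHD-AFC; normalized to an on-plate AFC standard curve; compounds titrated up to 57 uM.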
# TSHR ag – TSH receptor (human) agonism; P16473; hit rate 0.48% among 73,000; HEK293-CNG-TSHR cells (CNG channel as cAMP sensor), membrane potential dye, cAMP; AID 926; Potency, µM (titrated, usually from 57.1 µM), inactives show top-dose activation, hits mostly activators; active = well fitted activation curve of enough size with the parental cells flat; inconclusive = any curve in the parental cells; inactive = parental cells flat and receptor cells flat or falling; note: potency is the fitted concentration of half-maximal effect; % of control where 0% means no effect; weak receptor curves with flat parental cells got no call and are not listed
# Target sequence (P16473 whole entry, looked up): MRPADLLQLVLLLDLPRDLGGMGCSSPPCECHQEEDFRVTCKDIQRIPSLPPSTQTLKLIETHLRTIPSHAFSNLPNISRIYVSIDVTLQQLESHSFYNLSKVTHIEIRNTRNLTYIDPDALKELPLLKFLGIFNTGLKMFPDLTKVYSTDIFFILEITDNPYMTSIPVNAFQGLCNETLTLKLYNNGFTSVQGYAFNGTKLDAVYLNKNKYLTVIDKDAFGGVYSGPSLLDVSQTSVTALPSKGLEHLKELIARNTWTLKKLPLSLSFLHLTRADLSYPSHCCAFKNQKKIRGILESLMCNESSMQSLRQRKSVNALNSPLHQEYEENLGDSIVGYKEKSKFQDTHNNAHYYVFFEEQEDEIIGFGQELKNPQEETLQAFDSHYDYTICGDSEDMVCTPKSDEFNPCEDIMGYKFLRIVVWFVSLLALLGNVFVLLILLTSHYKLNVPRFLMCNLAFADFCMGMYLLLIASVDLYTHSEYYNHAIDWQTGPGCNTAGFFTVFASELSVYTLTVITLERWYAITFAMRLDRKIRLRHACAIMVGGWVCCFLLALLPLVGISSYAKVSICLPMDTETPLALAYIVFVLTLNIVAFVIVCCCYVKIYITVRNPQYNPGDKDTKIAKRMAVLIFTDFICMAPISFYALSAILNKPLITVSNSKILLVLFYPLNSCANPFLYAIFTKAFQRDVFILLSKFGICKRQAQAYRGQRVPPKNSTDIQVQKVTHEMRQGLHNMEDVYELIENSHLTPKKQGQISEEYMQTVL
#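 HEK 293 cells stably expressing TSHR and a cAMP-gated CNG channel; parental CNG-only cells as counterscreen. Cells preloaded 60 min with membrane potential dye plus 100 uM RO 20-1724, then compound 30 min; fluorescence read at 590 nm.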
# Resorufin autofl – resorufin region autofluorescence; Compound fluorescence, resorufin region 547/598 nm, buffer; active compounds read high; max dye-equivalent concentration, M; hit rate 0.04% among 59,000; active = above 10 nM dye equivalent; inconclusive = 1 to 10 nM; inactive = 1 nM or less; a few of its hits are not listed in these tables; note: highest value over a series up to 38 µM
#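 Read-out: intrinsic compound fluorescence at ex 547/em 598 nm after 15 min at RT in pH 8.0 Tris (100 mM). Values expressed as resorufin-equivalent concentration from per-plate standard series.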
# A647 autofl – A647 region autofluorescence; max dye-equivalent concentration, M; Compound fluorescence, A647 channel (570/671 nm), Tris buffer; 59,000 tested, under 10 active; active means above 1 µM dye equivalent; inconclusive means 0.1 to 1 µM; inactive means 0.1 µM or less;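 note: values scaled relative to a standard on each plate; highest value over a series up to 38 µM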
#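 Buffer was dispensed, compounds and Alexa 647 standards were pin-transferred, and plates sat 15 min at room temperature. Intensity at 570/671 nm was then converted to dye-equivalent concentration using the plate's A647 standard curve.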
# A488 autofl – compound autofluorescence in A488 spectral region; compound autofluorescence, A488 spectral region, dye equivalency; active compounds read high; max dye equivalency, M; hit rate 0.1% among 59,000; AID 591; active = above 10 nM dye equivalent; inconclusive = 1 to 10 nM; inactive = 1 nM or less; about half of its hits are not listed in these tables;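 note: highest value over a series up to 38 µM; compound alone in buffer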
#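 Autofluorescence read at ex 480/em 540 nm after 15 min RT in 100 mM Tris pH 8.0; compound signal normalized to A488 standard series on each plate, reported as dye-equivalent concentration at each test concentration.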
# Active calls of the source: *; i = inactive; ? = inconclusive; nt = not tested or not shown; [ ] = remark or other dose. The list is partial; the hit share may differ from the screen's.
SMILES,AID923,TSHR ag,Resorufin autofl,A647 autofl,A488 autofl
CCOC(=O)N1CCN(S(=O)(=O)c2ccc(F)cc2)CC1,1.7%,0.5%,i,1e-09,i
COc1cccc(OCC(=O)Nc2ccccc2NC(C)=O)c1,-0.3%,-4.6%,i,4.08e-08,i
Clc1ccc(CSc2ncn[nH]2)cc1,1.6%,-2.5%,nt,nt,nt
CC1CCN(S(=O)(=O)Cc2ccccc2Cl)CC1,-0.1%,nt,i,1.16e-08,i
O=C(O)CSc1ccn(Cc2ccccc2)c1,-1.2%[11.5 µM],-3.2%[11.4 µM],i,1.68e-08,i
COc1ccccc1CNC(=O)CCNC(=O)Cn1ccc2ccccc2c1=O,-0.4%,0.5%,i,3.7e-09,i
O=C(Nc1cccc(F)c1)N1CCCC2(CCN(C(=O)c3cccc(F)c3)CC2)C1,2.0%,?,i,2.8e-09,i
Cc1c(C(=O)COC(C)(C)C)[nH]c2ccccc12,-1.0%,2.8%,i,1e-09,i
O=[N+]([O-])c1cc(Cc2cc([N+](=O)[O-])c3cccnc3c2O)c(O)c2ncccc12,3.9%[11.5 µM],-2.9%[11.4 µM],i,1.5e-08,i
Cc1ccc(Cn2c3ccccc3c3cn[nH]c(=O)c32)cc1,-2.6%,?,nt,nt,nt
Cc1ccc(OCCCN(C)C)c(Br)c1,0.0%,1.8%,nt,nt,nt
COc1ccc(F)cc1S(=O)(=O)n1cc(C)nc1-c1ccccc1,-0.4%,6.9%,i,1.43e-08,i
NC(=O)CSc1nnc(-c2ccoc2)o1,1.4%,3.0%,i,2.58e-08,i
O=C(O)c1cc(C(=O)O)c(-c2ccccc2)c(C(=O)O)c1,1.2%,-0.7%[11.4 µM],nt,nt,nt
CCc1nc(N2CCC(C)CC2)c2oc3ccccc3c2n1,-0.4%,?,i,2.02e-08,i
CC(CP(=O)(O)O)NC(=O)Cc1ccccc1 (stereo not drawn),-1.6%,-1.1%,i,4.4e-08,i
CCC(c1nnnn1C(C)C)N1CCN(C2CCCC2)CC1 (stereo not drawn),0.2%,?,i,1e-09,i
COc1ccc(C(=O)N2CCCc3ccccc32)cc1,1.0%,?,nt,nt,nt
COC(=O)CSc1ncc(C#N)c(N)n1,3.6%,-1.5%,i,4.5e-09,i
Cn1c(=O)oc2cc(S(=O)(=O)NC3CCN(Cc4ccccc4)CC3)ccc21,3.4%,0.8%,nt,nt,nt
CCC(C)(C(=O)NC1CCCC1)N(Cc1cccs1)C(C)=O (stereo not drawn),6.7%,8.7%,i,1e-09,i
CCOc1cc(S(=O)(=O)n2nc(C)cc2C)ccc1F,-1.8%,6.1%,i,1e-09,i
O=C(/C=N/O)NCCCN1CCOCC1,nt,nt,i,1e-09,i
CN(CCc1ccc(Cl)c(Cl)c1)CCN1CCCCCC1,3.6%,?,nt,nt,nt
N#CC1=C(N)OC(c2ccccc2)=C(C#N)C1c1ccc2c(c1)OCO2 (stereo not drawn),3.0%,8.4%,i,4.33e-08,i
O=C(OCc1nnc(-c2ccc(Cl)cc2)o1)c1ccncc1,0.1%,16.8%,i,1e-09,i
COC(=O)C(C)Sc1nnc(SC(C)C(=O)OC)s1 (stereo not drawn),-0.1%,0.4%,i,3.03e-08,i
CC(=O)c1ccc(OC(C)C)c(CSc2nc(O)cc(=O)[nH]2)c1,0.0%,10.6%,nt,nt,nt
O=C(O)c1cc(S(=O)(=O)O)ccc1O,-1.6%,5.9%,i,1e-09,i
CCOC(=O)c1cc2sccc2n1CC(=O)N1c2ccccc2CC1C (stereo not drawn),0.2%,?,i,1e-09,i
Cc1ccccc1-c1ccc(Nc2ccc(N3CCOCC3)cc2)nn1,-1.6%,-19.9%,i,5.2e-09,i
COc1cccc(NC(=O)Cc2nnc(SCC(=O)c3ccccc3)n2C)c1,0.4%,5.6%,i,1e-09,i
CC(=O)Nc1cc(C(=O)O)ccc1S(=O)(=O)c1ccc(Cl)cc1,2.9%,-3.7%,i,1e-09,i
Cc1ccc(N2CC(C(=O)Nc3cccc(F)c3)CC2=O)cc1 (stereo not drawn),-0.5%,-3.1%,nt,nt,nt
COc1ccc(N(C)S(=O)(=O)c2cccc3cccnc23)c(OC)c1,-0.4%,9.3%,i,2.5e-09,i
COc1ccc(N=CC2=C(O)CC(C)(C)CC2=O)cc1,0.0%,27.8%,nt,nt,nt
Cc1ccnc(SCCn2c(N3CCN(C)CC3)nc3c2c(=O)[nH]c(=O)n3C)n1,-2.8%,1.2%,i,3.34e-08,i
CCOC(=O)c1nnn(-c2nonc2N)c1-c1ccc(OC)cc1,0.5%,-5.3%[11.4 µM],i,2.84e-08,i
Cn1c(Cc2cccs2)nnc1SC/C=C/c1ccccc1,-0.9%,?,i,5.06e-08,i
CN1CCN(S(=O)(=O)c2ccc3[nH]cc(C(=O)O)c(=O)c3c2)CC1,-1.1%,2.5%,i,1e-08,i
C=CCC1C=CC(Oc2ccc(OC)cc2)C(CO)O1 (stereo not drawn),-0.6%[11.5 µM],-2.3%[11.4 µM],nt,nt,nt
CCOC(=O)c1c(C)c(-c2ccccc2)n(CC(=O)N2CCCC2)c1C,1.0%,?,nt,nt,nt
O=C(Cn1cnc2ccccc2c1=O)c1ccc2c(c1)OCCO2,0.0%,0.2%,i,1.3e-09,i
CCNC(=O)Cc1ccc(NS(=O)(=O)c2ccc(F)cc2)cc1,5.3%,12.2%,i,1e-09,i
CCN(CC)CCCN1C(=O)C(O)=C(C(=O)c2cccs2)C1c1ccccn1 (stereo not drawn),0.7%,3.4%,i,4.1e-09,i
Nc1ccc(Cl)cc1[N+](=O)[O-],-0.3%,-0.9%,nt,nt,nt
CCOc1ccc(CCNc2nc3c(c(=O)n(C)c(=O)n3C)n2CC)cc1OCC,-2.5%,22.6%,i,3.7e-09,i
O=c1[nH]ncc2ccccc12,0.2%,0.2%,nt,nt,nt
O=C(O)Cn1cccc1C(=O)c1ccccc1,3.5%,-2.5%,i,2.52e-08,i
CCCn1c(=O)c2c(c3ccccc31)OC(C)C(=O)N2 (stereo not drawn),-0.5%,5.2%[11.4 µM],i,1e-09,i
CCN(CC(=O)N1CCCCCC1)S(=O)(=O)c1ccc(Cl)cc1,0.4%,-6.3%,i,6e-09,i
C=CCOc1ccc(/C(O)=C2\C(=O)C(=O)N(CCN(C)C)C2c2cccs2)cc1 (stereo not drawn),nt,nt,i,6.8e-09,i
N#CC1=C2SCN(Cc3ccccc3)CN2C(=O)CC1c1ccccc1F (stereo not drawn),-3.3%,5.1%,nt,nt,nt
CCOC(=O)N1CCN(C(=O)C2CCN(S(=O)(=O)N3CCCC3)CC2)CC1,0.0%,nt,i,1e-09,i
CN(C)S(=O)(=O)n1cnc2ccccc21,-0.1%,-8.2%,i,3.83e-08,i
O=C(NCc1cccs1)Nc1cccs1,0.9%,-6.8%,i,2.54e-08,i
CCOC(=O)c1ccc(N2C(=O)CC(N3CCN(C/C=C/c4ccccc4)CC3)C2=O)cc1 (stereo not drawn),0.2%,?,nt,nt,nt
CC(C)CC1N=C2c3ccccc3N=C(SCc3cc(=O)n4ccccc4n3)N2C1=O (stereo not drawn),1.2%,5.1%,i,1.18e-08,i
CCc1c(C)nc(N)nc1OCC(F)(F)C(F)F,0.6%,1.6%,nt,nt,nt
CCN1CCN(C(=O)CS(=O)Cc2nc(-c3ccc(OC)cc3)oc2C)CC1 (stereo not drawn),-1.5%,4.6%,nt,nt,nt

# Later entries.
SMILES,AID923,TSHR ag,Resorufin autofl,A647 autofl,A488 autofl
CCOc1cccc(/C(O)=C2/C(=O)C(=O)N(CCOC)C2c2ccncc2)c1 (stereo not drawn),1.3%,-4.6%,i,1.85e-08,i
CCOC(=O)CC(=O)Nc1ccccc1C(=O)O,0.9%,-1.7%,nt,nt,nt
O=C(Nc1ccc2c(c1)nc1n2CCN(Cc2ccccc2)C1)c1cccs1,1.6%,3.8%,i,1e-09,i
COc1ccc(Oc2ncnc3c2ncn3Cc2ccccc2)cc1,1.0%,8.3%,i,7.3e-09,i
CCOC(=O)COc1ccc(C(=O)NC2CCCCC2)cc1,-1.5%,7.9%,i,2.58e-08,i
Cc1ccc2c(c1)nnn2C1CCN(C(=O)c2cccs2)CC1,0.0%,6.2%,i,1e-09,i
COC(=O)c1ccc(NC(=O)Cn2nc(SC)n(N)c2=S)cc1,1.6%,28.7%,i,1e-09,i
O=C1NC2(CCCC2)N=C1c1ccc(Cl)cc1,0.6%,-4.1%,i,3.3e-09,i
c1ccc(-n2ncc3c2ncn2c(CSc4nc5ccccc5s4)nnc32)cc1,6.9%,-5.9%,nt,nt,nt
CCCCNC(=O)c1ccccc1NS(=O)(=O)c1ccc2c(c1)OCCO2,-0.7%,nt,i,2e-08,i
Cc1cc(Cl)c(S(=O)(=O)NCCC(=O)O)cc1OCC(N)=O,-0.1%,7.3%,i,1e-09,i
Cc1ccc(CN2CC(C(=O)Nc3ccc(S(=O)(=O)Nc4cc(C)nc(C)n4)cc3)CC2=O)cc1 (stereo not drawn),0.6%,0.2%,i,1e-09,i
C=CCn1cnc2c(c1=O)c1nc3ccccc3nc1n2/N=C/c1cc(OC)c(OC)c(OC)c1,-0.9%,-7.8%,i,3.8e-09,i
COc1ncc2nc(-c3cc(F)cc(F)c3)c(=O)n(-c3ccccc3)c2n1,16.3%,-7.8%,i,1e-09,i
C=CCc1cccc(CNc2nc3ccccc3n2CC)c1O,-1.7%,-24.9%,i,3.19e-08,i
CCS(=O)(=O)N1CCC(C(=O)NC2CCCCC2)CC1,1.8%,-0.1%,i,1e-09,i
Cc1cccc(N2CCN(C(=O)Cn3ccc4ccccc4c3=O)CC2)c1C,-2.1%,-4.2%[11.4 µM],i,1e-09,i
COc1cccc(NC(=O)N2CCCC2C(=O)Nc2ccc3c(c2)OCO3)c1 (stereo not drawn),0.7%,5.0%,i,1e-09,i
Clc1cccc(-c2nnc3sc(-c4ccc5c(c4)OCO5)nn23)c1,-1.1%,7.9%,i,1e-09,i
O=C(Nc1ccccc1C(=O)Nc1ccccc1C(=O)NCc1ccco1)c1ccco1,0.5%,20.5%,i,1e-09,i
Cc1cc(NC(=O)c2cc(-c3cccnc3)nc3c(C)c(C)ccc23)no1,-0.3%,?,i,6.1e-09,i
CN(C)c1ccc(-c2ccc3ncnc(N4CCNCC4)c3c2)cc1,3.4%,-2.3%,i,1e-09,i
CC1=CC(c2ccccc2)n2nc(N3C(=O)c4ccccc4C3=O)nc2N1 (stereo not drawn),2.0%,-4.5%,i,1.24e-08,i
CCCc1cc(=O)[nH]c(SCC(=O)NC(=O)OCC)n1,-1.6%,?,i,1e-09,i
COc1ccc(C(=O)N2CCC3(CC2)CCN(c2ccccn2)CC3)cc1,-0.5%,16.2%,i,5.7e-09,i
COc1cc2c(C(=O)NCc3ccc(C)o3)cn(CC(C)C)c(=O)c2cc1OC,-2.1%,-0.7%[11.4 µM],i,2.7e-09,i
CCn1cc(C(=O)OCc2ccc(F)cc2)c(=O)c2ccc(C)nc21,-0.7%,nt,i,1e-09,i
COCCNC(=O)Cn1nc(-c2ccccc2OC)ccc1=O,1.4%,-1.8%,i,1.71e-08,i
CC(C)C(O)(C(C)C)C(C)C,3.2%[11.5 µM],5.3%[11.4 µM],i,1e-09,i
COC(=O)C(C(C)=O)C(NC(=O)NCc1ccccc1)c1ccccc1 (stereo not drawn),-0.5%[11.5 µM],-3.5%[11.4 µM],nt,nt,nt

# Sorted by value in A647 autofl (smallest number first): some entries from above
Compound	Resorufin autofl	A647 autofl
CC(=O)Nc1cc(C(=O)O)ccc1S(=O)(=O)c1ccc(Cl)cc1	i	1e-09
CCOc1ccc(CCNc2nc3c(c(=O)n(C)c(=O)n3C)n2CC)cc1OCC	i	3.7e-09
COC(=O)CSc1ncc(C#N)c(N)n1	i	4.5e-09
COc1ccc(F)cc1S(=O)(=O)n1cc(C)nc1-c1ccccc1	i	1.43e-08
